Source: PubChem BioAssay
TRPML1 inh – human mucolipin-1 channel inhibition; TRPML1-inducible cells, Ca2+ dye fluorescence, FDSS; active compounds read low; inhibition of EC80 agonist-evoked calcium signal; activity change, negative = inhibition, % (test concentration not listed); 0.02% of 390,000 active; in the data active means activity change below about -50%; inconclusive means about -30% to -50%; inactive means above about -30%;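 note: stimulus is agonist 54-4 at its EC80 concentration; % is set by controls: 0 for no effect and ±100 for the full control effect; compound concentration not given in the record; the text of the record puts the active cut at -80%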
Target sequence (Q9GZU1 whole entry, looked up): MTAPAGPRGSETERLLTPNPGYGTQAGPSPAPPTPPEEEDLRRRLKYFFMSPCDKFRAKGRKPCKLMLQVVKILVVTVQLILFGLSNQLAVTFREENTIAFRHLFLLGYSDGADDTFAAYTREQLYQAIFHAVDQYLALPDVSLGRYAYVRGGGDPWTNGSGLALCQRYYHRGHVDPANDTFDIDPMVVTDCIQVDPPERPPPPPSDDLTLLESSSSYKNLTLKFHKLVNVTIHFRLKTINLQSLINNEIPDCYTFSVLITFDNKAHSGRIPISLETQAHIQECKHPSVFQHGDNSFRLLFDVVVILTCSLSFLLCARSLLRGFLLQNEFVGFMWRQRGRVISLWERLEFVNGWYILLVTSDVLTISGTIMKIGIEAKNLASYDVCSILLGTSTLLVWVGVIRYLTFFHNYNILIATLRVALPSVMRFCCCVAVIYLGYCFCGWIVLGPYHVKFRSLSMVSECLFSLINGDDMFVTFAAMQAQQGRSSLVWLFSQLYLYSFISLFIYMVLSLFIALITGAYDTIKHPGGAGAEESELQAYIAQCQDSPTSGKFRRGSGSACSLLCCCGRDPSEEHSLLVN
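TRPML1-DL cells, Tet-induced overnight (~16 h, 37 °C) at 1,500 cells/well, were loaded with Ca8 no-wash dye plus quencher for 45-90 min at room temperature. Compounds were pinned during FDSS kinetic reading; agonist 54-4 at EC80 (4 uM final) then added.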
Six1-Eya2 inh – blocks human Six1 binding to Eya2; Q15475+O00167; AlphaScreen GST-Six1/His-Eya2 binding, biochemical; active compounds read low; control for the full effect not named in the record; activity change, % (test concentration not listed); 0.56% of 360,000 active; in the data active = activity change below about -65%; inconclusive = about -30% to -65%; inactive = above about -30%; note: % is set by controls: 0 for no effect and ±100 for the full control effect
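AlphaScreen with GST-Six1 and His-Eya2 (5X mix: 250 nM and 500 nM), glutathione donor and nickel acceptor beads; buffer 50 mM Tris pH 8.0, 300 mM NaCl, 1 mM TCEP; 1 h at 37 C in the dark.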
TRPML1 ag – human mucolipin-1 channel agonism. Q9GZU1. 0.12% of 410,000 active. TRPML1-expressing cells, Ca2+ dye fluorescence, FDSS; host cell line not named in the record; reference of the full effect not given here. AID 624414. activation, % (test concentration not listed); in the data active = activation above about 50%; inconclusive = about 30% to 50%; inactive = below about 30%; note: 0% is about no effect; the text of the record puts the active cut at 80%
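Agonist activity was taken from a 110 s kinetic Ca2+ dye read on the FDSS after pinning compounds onto TRPML1-DL cells. The cells were seeded at 1,500/well with Tet inducer, incubated about 16 h, then dye-loaded at room temperature.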
PINK1 modulator – changes PINK1 expression; AID 624263; PINK1 immunofluorescence, high-content cytometry, 24 h; 0.2% of 410,000 active; Potency, µM (top dose mostly 76.6 µM), inactives show top-dose activation (PINK1 increase), actives largely listed as activators; active = well fitted activation curve with a large enough effect; inconclusive = small, poorly fitted or top-dose-only effect; inactive = flat fitted curve, though single readings scatter; cell line not stated here;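 note: potency is the fitted concentration of half-maximal effect; % of control where 0% means no effect; nearly all actives have a fitted effect of over 65% in size; a mitochondrial uncoupler was the plate control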
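Readout is PINK1 immunofluorescence, quantified alongside mitochondrial, cell and nuclear markers by laser-scanning microplate cytometry. Cells from a stable line were exposed to compound titrations (5 concentrations) for 24 hours, with CCCP controls.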
D2 ag – human D2 receptor agonism in beta-arrestin assay; AID 624465; P14416; DiscoveRx PathHunter D2 beta-arrestin, luminescence, 90 min; 100% = 57 uM dopamine signal; 0.084% of 360,000 active; activation, % (concentration not given with the values); in the data active = activation above about 40%; inconclusive = about 15% to 40%; inactive = below about 15%; note: compound concentration not given in the record; the text of the record calls up to 30% inactive
Target sequence (P14416 whole entry, looked up): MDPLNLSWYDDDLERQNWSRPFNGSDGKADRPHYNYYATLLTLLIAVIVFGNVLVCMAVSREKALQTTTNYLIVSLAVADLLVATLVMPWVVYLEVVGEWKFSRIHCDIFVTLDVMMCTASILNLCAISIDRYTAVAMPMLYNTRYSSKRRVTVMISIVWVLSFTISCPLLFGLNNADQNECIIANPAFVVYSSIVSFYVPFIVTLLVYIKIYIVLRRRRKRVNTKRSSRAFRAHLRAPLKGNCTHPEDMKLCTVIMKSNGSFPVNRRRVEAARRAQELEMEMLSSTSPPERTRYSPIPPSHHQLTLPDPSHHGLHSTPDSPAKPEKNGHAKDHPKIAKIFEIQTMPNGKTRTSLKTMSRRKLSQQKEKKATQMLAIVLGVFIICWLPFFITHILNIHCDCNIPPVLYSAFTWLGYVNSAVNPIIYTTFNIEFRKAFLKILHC
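Agonist mode: compounds alone added to overnight-plated D2 PathHunter cells for 90 min at 37 C, with 57 uM final dopamine (EC100) defining full response. Beta-arrestin recruitment detected by chemiluminescent reagent, read after 1 h at ambient temperature.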
D2 PAM – human D2 receptor positive allosteric modulation | P14416 | DiscoveRx D2 beta-arrestin cells, luminescence, 90 min; 100% = 57 uM dopamine signal | potentiation, % (test concentration not listed) | 0.23% of 360,000 active | AID 624464; active = potentiation of 50% or more; inconclusive = 30% to 50%; inactive = 30% or less;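 note: compound concentration not given in the record; tested on top of an EC20 dose of dopamine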
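PathHunter D2 cells, attached overnight at 37 deg C, received compound in DMSO plus dopamine at EC20 (50 nM final) for 90 min at 37 deg C. Beta-arrestin recruitment was read as luminescence after 1 h with detection reagent at ambient temperature.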
* = called active by the depositor; ? = inconclusive; nt = no result given; [ ] = dose if it differs, or a comment.

Compound,TRPML1 inh,Six1-Eya2 inh,TRPML1 ag,PINK1 modulator,D2 ag,D2 PAM
Cc1onc(-c2ccccc2)c1C(=O)Nc1nc(-c2cc(F)ccc2F)cs1,-5,0,0.2,?,1.7,-2
Cc1ccc(SCCOCCN2CC(C)OC(C)C2)cc1 (stereo unspecified),-2,2,-0.8,0.7%,-2.1,-23
COc1ccc([N+](=O)[O-])cc1NC(=O)Cc1noc2ccccc12,13,-15,-0.4,0.5%,-3.5,-3
O=C(NCc1ccccn1)C1CC(c2ccccc2O)=NO1 (stereo unspecified),-15,-1,-0.3,0.9%,1.0,-4
CN(C1CCCCC1)S(=O)(=O)c1ccc(S(=O)(=O)N(CC(=O)Nc2ccccc2)C2CC2)cc1,11,-4,0.3,4.2%,-3.6,-21
CC1CCCN(c2c([N+](=O)[O-])cc(C(=O)O)cc2[N+](=O)[O-])C1 (stereo unspecified),-1,-2,0.8,0.4%,-5.0,-3
Cc1cc(C)cc(NC(=O)C2CCN(c3nc4ccccc4nc3C(F)(F)F)CC2)c1,37,nt,-0.6,1.0%,nt,nt
O=C(Nc1nccs1)C1(c2ccc(Cl)cc2)CC1,4,-1,-0.4,0.1%,0.9,-6
CCOC(=O)Cn1nnc(-c2ccc([N+](=O)[O-])cc2)n1,31,7,-0.3,0.2%,0.3,-4
CC1=C(C(=O)Nc2ccccc2C)C(c2ccc(C)o2)C2=C(CCCC2=O)N1 (stereo unspecified),63,-3,-0.4,-2.8%[38.3 µM],3.8,22
Nc1ccc(SCC(=O)Nc2cccc([N+](=O)[O-])c2)cc1,9,-13,-1.1,1.2%,-4.4,-13
COc1ccc(-c2ccc(NS(=O)(=O)c3cccc([N+](=O)[O-])c3)cc2)nn1,-25,-19,-0.7,0.0%,3.6,-7
CCOC(=O)c1c(C)n(CCNC(C)=O)c2ccc(OC)cc12,-6,-1,-0.4,-0.6%,-1.5,2
CC(OCC(O)CNCC1COc2ccccc2O1)c1ccc(Cl)cc1 (stereo unspecified),2,5,0.1,5.7%,-5.2,-12
CCN1CCN(c2cc(C)c3cc(NC(=S)N4CCCC(C)C4)ccc3n2)CC1 (stereo unspecified),-4,-4,1.0,8.0%,-0.7,-7

Some of the entries above, reformatted.
Below each compound – TRPML1 inh | Six1-Eya2 inh | TRPML1 ag | PINK1 modulator | D2 ag | D2 PAM
> O=C(Nc1nccs1)C1(c2ccc(Cl)cc2)CC1
  4 | -1 | -0.4 | 0.1% | 0.9 | -6
> CCOC(=O)Cn1nnc(-c2ccc([N+](=O)[O-])cc2)n1
  31 | 7 | -0.3 | 0.2% | 0.3 | -4

(listing goes on)
Compound,TRPML1 inh,Six1-Eya2 inh,TRPML1 ag,PINK1 modulator,D2 ag,D2 PAM
Cc1ccc(N2C(=O)C3CCCN3C2=S)cc1 (stereo unspecified),12,11,-0.7,0.4%,5.5,-11
COc1ccc(S(=O)(=O)N2CCOCC2)cc1NC(=O)c1ccc(OC(F)F)cc1,4,2,4.1,12%,0.4,1
O=C(OCC(=O)N1CCC(Cc2ccccc2)CC1)c1ccccc1F,-12,6,1.8,3.2%,-2.0,-3
COC(=O)[C@H](CCSC)NC(=O)Nc1cccc(Br)c1,-10,-17,-0.9,1.2%,-4.0,0
COn1c(SC2CCCCC2)nc2ccccc2c1=O,-2,5,1.3,2.5%[38.3 µM],-1.1,-5
Cc1[nH]nc2c1C(c1cnn(C)c1)C(C#N)=C(N)O2 (stereo unspecified),-10,?,-0.4,0.7%,2.5,7
COc1ccc(C(=O)O)cc1S(=O)(=O)N1CCN(Cc2ccc3c(c2)OCO3)CC1,-2,2,-0.4,0.4%,6.5,3
CCOc1cc(C(=O)NC(C)C2CC3CCC2C3)cc(OCC)c1OCC (stereo unspecified),-13,-1,2.0,8.9%,-1.2,-10
O=C(Nc1ccc(Cl)c(Cl)c1)c1cccnc1,nt,-3,nt,0.1%,0.7,-51
Cc1cc(C)c2cc(C)c3nnc(SCC(=O)NCc4ccc5c(c4)OCO5)n3c2c1,-8,?,-0.8,12%[38.3 µM],-5.5,-20
CC(=O)OCCCCCCCCCCC[N+]1(C)CCCCC1,10,-5,0.4,1.0%,2.0,1
COc1cccc(Cn2ccn(-c3ccc(F)cc3)c(=O)c2=O)c1,43,nt,0.1,-0.6%,nt,nt
Cc1ccc(CS(=O)Cc2ccc(C(=O)NCCc3ccccc3)o2)cc1 (stereo unspecified),8,0,-0.4,1.0%,2.6,-1
Cc1c(Cl)cccc1NC(=O)Cn1nc(C(F)(F)F)c2c1CCC2,-5,nt,0.6,0.8%,nt,nt
Cc1ccc(NS(=O)(=O)c2ccc(C(=O)NCCN3CCOCC3)cc2)cc1,39,0,1.7,-3.4%,-0.2,-10
O=Cc1c[nH]c2ccc(S(=O)(=O)N3CCCCC3)cc12,-1,-18,-0.3,2.8%,-0.6,-6
COc1ccc(C(c2nnnn2C2CCCC2)N2CCc3ccccc3C2)cc1OC (stereo unspecified),21,-13,1.2,9.1%,-4.3,-8
c1ccc(OCc2nn3c(-c4ccco4)nnc3s2)cc1,-9,-12,-0.9,2.6%[38.3 µM],0.4,0
c1ccc(Nc2ccc(-n3ccnc3)nn2)cc1,-10,5,-1.0,-1.0%,2.7,-6
C=CCNC(=S)N/N=C/c1ccc(-c2ccc(Br)cc2)o1,-14,1,1.7,14%,-6.0,-5
CCN(C(=O)CN1CCc2ccccc21)c1c(N)n(Cc2ccccc2)c(=O)[nH]c1=O,9,-1,1.2,-0.2%,-5.5,-8
CC1=C(C(=O)OCc2ccc3c(c2)OCO3)C(c2ccc(Cl)cc2)NC(=O)N1 (stereo unspecified),-1,-3,0.5,-1.9%[38.3 µM],0.6,-5
Cc1c(C(=O)N(C)C)sc(NC(=O)c2cc([N+](=O)[O-])cc([N+](=O)[O-])c2)c1C#N,-4,-13,-0.3,-0.5%,-4.0,7
CC(CCc1ccccc1)NC(=O)COC(=O)c1ccc(NC(=O)CC#N)cc1 (stereo unspecified),-24,19,0.1,1.8%,7.7,-1
Cn1nnnc1SCC(=O)N1CCN(C(c2ccccc2)c2ccccc2)CC1,?,-1,2.0,-2.3%,1.5,-16
O=C1Cc2ccccc2C(c2c(Cl)cccc2Cl)N1 (stereo unspecified),-11,-16,0.5,1.5%,?,-5
CCOc1cc(C(=O)Nc2ccc3c(c2)OCO3)ccc1OC(F)F,-6,-5,-0.1,nt,2.6,-32
CN(C(=O)c1ccc(NC(=O)Cc2ccc(NC(=O)C3CCN(C(=O)C4CCCCC4)CC3)cc2)cc1)C1CCCC1,0,10,1.2,11%,2.1,-2
CC(C)C[C@H](NC(=O)C1CC(=O)N(c2ccc3c(c2)OCO3)C1)C(=O)NC1CCCCC1 (stereo partly specified),0,2,-0.6,20%,-1.5,4
Cc1ccc(C(=O)NCCCNC(=O)c2ccccc2C)cn1,-2,6,0.8,2.3%,-2.9,-3
O=S1(=O)C[C@@H](N2CCN(CCO)CC2)[C@H](COCc2ccccc2)N1,nt,14,0.0,-0.4%,-7.5,-10
CN(C)c1cccc(CNC(=O)c2csc([C@H]3C[C@H](O)[C@@H](CO)O3)n2)c1,nt,4,-0.2,1.1%,-2.8,-1
Cc1nn(C)c(C(=O)N2CCOCC2)c1Cl,7,1,0.3,1.0%,-2.0,5
CC(NC(=S)N1CCN(c2ccccc2)CC1)c1ccccc1 (stereo unspecified),nt,0,nt,3.2%,-4.8,-4
COC(=O)Nc1nc2c(C)cccc2s1,-5,19,-0.1,0.6%[38.3 µM],-2.2,-14
Cc1ccc(-c2c(CN3CCN(c4cccc(C)c4)C(C)C3)csc2C)cc1 (stereo unspecified),-1,nt,-0.8,1.3%,nt,nt
Cc1ccc(S(=O)(=O)N(C)CC(=O)Nc2cc(C)ccn2)cc1,-13,3,0.3,0.8%,-4.7,-3
Cc1ccccc1NS(=O)(=O)c1ccc(C(=O)NCC(C)(C)N2CCOCC2)cc1,5,-1,-0.7,8.3%,0.8,8
COc1cccc(CNC(=O)c2nnc(Cc3ccc(Cl)cc3)o2)c1,-2,nt,0.5,5.7%,nt,nt
CN(CCO)S(=O)(=O)c1ccc2c(c1)C(=O)c1cc(S(=O)(=O)N(C)CCO)ccc1-2,17,7,0.1,-0.1%,4.8,0
COc1ccc(C(=O)NCc2ccc3c(c2)OCO3)cc1,7,-5,0.1,-0.8%,-6.0,-4
O=C1COc2ccc(C(=O)COC(=O)c3ccccc3Cl)cc2N1,-20,7,1.2,-4.2%,2.5,-12
COc1ccccc1S(=O)(=O)Cc1ccc(C(=O)NCc2cccnc2)o1,-6,1,-0.2,1.7%,3.0,-3
O=C1N(c2cccc(Cl)c2)C(c2ccc(Cl)cc2)N2CCCN12 (stereo unspecified),19,0,0.3,1.5%,-3.8,-14
CN(C)S(=O)(=O)c1ccc(F)c(C(=O)Nc2ccccc2C(=O)NC2CC2)c1,2,4,1.2,0.2%,-4.6,-12
COc1ccc(CN(C)C(=O)c2ccc(NS(=O)(=O)c3ccc(C)c([N+](=O)[O-])c3)cc2)c(OC)c1OC,-10,0,-0.9,?,0.5,15
COc1ccc(C(=O)OCC(=O)c2ccc3c(c2)NC(=O)CO3)cc1[N+](=O)[O-],13,-2,-0.7,10.0%,-2.1,-5
CC(Oc1ccc(Br)cc1)C(=O)NC1CCN(Cc2ccccc2)CC1 (stereo unspecified),-13,-1,-0.2,-6.8%,-5.0,-32
CCOc1ccc(Cn2c(CNS(=O)(=O)c3ccc(C(C)(C)C)cc3)nc3cccnc32)cc1,13,nt,-0.6,-1.1%,nt,nt
COc1ccccc1C(=O)OCC(=O)Nc1ccccc1OC(F)F,-10,-3,0.3,0.9%,-3.9,-11
C/C(N)=C(/C#N)C(=O)CSc1nc2ccccc2c(=O)n1CCCO,10,3,0.4,-1.4%,-7.1,-7
Cc1ccc(/C=N/N2CCN(Cc3ccc(C)cc3)CC2)cc1,9,-21,0.5,2.4%,0.9,-13
O=C(CN1C(=O)COc2ccccc21)NCCN1CCCC1,-4,-1,-0.2,0.1%,6.9,-1
COc1ccccc1N1CCN(C(=O)C(C)N(c2ccccc2)S(C)(=O)=O)CC1 (stereo unspecified),-26,-1,-0.2,1.9%,-0.4,-4
COc1cccc(NC(=O)c2cccc3c(=O)c4c([nH]c23)CCCC4)c1,-6,nt,-0.4,-0.4%,nt,nt
CN(C)CCN(C(=O)c1ccco1)c1nc2c(F)cc(F)cc2s1,-13,nt,0.6,3.2%,nt,nt

Structural class: those above with bromine (three)
Compound,TRPML1 inh,Six1-Eya2 inh,TRPML1 ag,PINK1 modulator,D2 ag,D2 PAM
COC(=O)[C@H](CCSC)NC(=O)Nc1cccc(Br)c1,-10,-17,-0.9,1.2%,-4.0,0
C=CCNC(=S)N/N=C/c1ccc(-c2ccc(Br)cc2)o1,-14,1,1.7,14%,-6.0,-5
CC(Oc1ccc(Br)cc1)C(=O)NC1CCN(Cc2ccccc2)CC1 (stereo unspecified),-13,-1,-0.2,-6.8%,-5.0,-32
